HSD17B inhib = qHTS Assay for Inhibitors of HSD17B4, hydroxysteroid (17-beta) dehydrogenase 4 | 3-hydroxyacyl-CoA dehydrogenase type-2 (Homo sapiens), Q99714 | recombinant HSD17B10, NADH fluorescence kinetic; many of its hits are not listed in these tables | Potency, µM (series often up to 57.1 µM), without a hit: at the top dose activity change, negative = inhibition, usual class: inhibitors | 7.6% of 75,000 active | AID 893, 2007; active = well fitted inhibition curve with a large enough effect; inconclusive = small, poorly fitted or top-dose-only effect; inactive = no such curve, though single readings can be large or run the other way;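 note: the protocol describes HADH2 (HSD17B10) and not the HSD17B4 of the title; nearly all actives have a fitted effect of over 70% in size; most hits overshoot -100% by far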
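Activity followed as NADH fluorescence increase (ex 360, em 450 nm) every 30 seconds for 4 min, using final 90 uM beta-hydroxybutyryl CoA and 1 mM NAD+. Recombinant His-tagged enzyme, 20 nM, pH 9.0 Tris buffer, 15 min compound preincubation.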
* marks the source's active call; other numbers are inactive results; ? = inconclusive; & = joins results of further samples; [ ] = remark or other dose. % is set by controls: 0 for no effect and ±100 for the full control effect; potency is the fitted concentration of half-maximal effect. These rows are one share of the data; the hit share may differ from the screen's.

smiles,HSD17B inhib
CC1(C)CC(=O)c2cc(C(=O)N3CCCCC3)c(=O)n(-c3ccc(Cl)cc3)c2C1,6.8%
CC(C)(C)NC(=O)NC(=O)COC(=O)C1CC(=O)N(Cc2ccccc2)C1 (stereo unspecified),1.7%
O=C(COC(=O)Cc1ccc(S(=O)(=O)N2CCOCC2)s1)NCc1ccccc1,-9.6%
Cc1ccc(C2/C(=C(/O)c3ccc(Cl)cc3)C(=O)C(=O)N2CC2CCCO2)o1 (stereo unspecified),-16.5%
CCOC(=O)c1sc(C)c(C(N)=O)c1NC1=NCCCCC1,48.3%[activator]
C[C@@H](NCc1cc(Br)cc2[nH]c(=O)c(=O)[nH]c12)P(=O)(O)O,13.5%
COc1cc(C2NC(C(=O)O)CS2)ccc1OCc1ccccc1C#N (stereo unspecified),3.7%
O=C(NCCN1CCOCC1)c1ccc2c(c1)ncn2C1CCCCC1,-1.7%
O=C(O)CCC(=O)N1CCc2cc(S(=O)(=O)NC3CCCC3)ccc21,-4.3%
O=C1NC(=O)C2C3c4ccccc4C(c4ccccc43)C12 (stereo unspecified),-0.3%
CCC(C(=O)N1CCc2ccccc2C1)n1nc(C)n2c(cc3occc32)c1=O (stereo unspecified),-0.5%
O=C(Cn1cnc2c(nnn2-c2ccccc2)c1=O)N1CCC(Cc2ccccc2)CC1,-5.1%
CCCN(CC1CC1)S(=O)(=O)c1ccc(S(N)(=O)=O)cc1,2.8%
O=c1c2ccccc2nnn1CSc1ncnc2ccccc12,1.4%
CCc1ccc(N2CC(C(=O)OCC(=O)Nc3cc(C)on3)CC2=O)cc1 (stereo unspecified),9.8%
O=C1CC(C(=O)N(c2ccc(F)cc2)C(C(=O)NC2CCCC2)c2ccccn2)CS1 (stereo unspecified),-5.1%
Cc1ccc2oc(=O)c3cnn(CC(=O)N(CCCN4CCOCC4)Cc4ccco4)c3c2c1,-0.9%
N#C/C(=C\N1CCNC1=S)C(=O)c1ccc2ccccc2c1,-14.0%[11.4 µM]
COc1ccc(C(=O)N2CCN=C2c2ccccc2)cc1OC,2.4%
C=CCSc1nc2ccccc2n1Cc1nnc(-c2cccs2)o1,?
CCCC(=O)Nc1ccc(NC(=O)c2cccc(OC)c2)nc1,7.4%
CN1C(=O)c2ccccc2C(C(=O)NCc2ccco2)C1c1c[nH]c2ccccc12 (stereo unspecified),7.5%
FC(F)(F)c1cc(CO[C@@H]2CCCN[C@H]2c2ccccc2)cc(C(F)(F)F)c1,-5.4%
COc1ccc(N2CCN(C(=O)CSc3nc4c(c(=O)n(C)c(=O)n4C)n3C(C)C)CC2)cc1,15.6%
CCCn1nc(C(=O)NCCc2ccc(S(N)(=O)=O)cc2)c2ccccc2c1=O,-4.0%
Cc1cccc(C)c1OC[C@@H](N)C(C)C,5.0%
COc1ccc(NC(=O)CN2CCN(c3ccc(Cl)cc3)CC2)c(OC)c1,-5.6%
C=Cc1c(C)c2cc3nc(cc4[nH]c(cc5nc(cc1[nH]2)C(C)=C5CCC(=O)O)c(CCC(=O)OC)c4C)[C@@]1(C)C3=CC=C(C(=O)OC)[C@H]1C(=O)OC (tested in a mixture with another compound),?
CCOCCOc1nc2c(c(=O)n(C)c(=O)n2C)n1Cc1ccc(C)cc1,1.3%
CCOC(=O)C1CCN(c2c(NCc3ccc(C(=O)NC(C)CC)cc3)c(=O)c2=O)CC1 (stereo unspecified),-5.8%
O=C(Cn1ncc2c(=O)oc3ccccc3c21)N1CCc2ccccc2C1,7.9%
Cc1onc(-c2ccccc2Cl)c1C(=O)Nc1ccc(F)c(F)c1,-2.3%
CCc1nc(SCC(=O)Nc2cc(C)on2)c2c(=O)n(C)c(=O)n(C)c2n1,4.3%
COc1ccc(NC(=O)Nc2nnc(C(C)C)s2)cc1,3.7%
Cn1c(C(=O)N(Cc2ccccc2)Cc2cccs2)cc2sccc21,1.4%
Nc1c(C(=O)NC2CCCC2)c2nc3ccccc3nc2n1/N=C/c1cccnc1,?
O=C(CC(C(=O)O)N1CCOCC1)Nc1ccc(Cl)cc1 (stereo unspecified),10.3%
CN(C)c1ncc2nc(CCc3ccccc3)c(=O)n(CCc3ccccc3)c2n1,31.6µM*
CNCc1ccccc1,3.7%
CCC(C)(C)n1nnnc1C(c1cc2ccc(C)cc2[nH]c1=O)N(Cc1cccnc1)Cc1ccco1 (stereo unspecified),-18.8%
O=c1[nH]c2c(s1)C=Nc1ccccc1N2,-6.3%
COc1cccc(CNC(=O)c2ccc(NC(=O)C3CCCO3)cc2)c1 (stereo unspecified),8.6%
CCc1nnc(NC(=O)c2ccc(S(=O)(=O)N(CC)CC)cc2)s1,-1.1%
COC(=O)[C@@]1(Cc2ccc(F)cc2)[C@H]2c3cc(C(=O)N4CCCC4)n(Cc4ccc(S(C)(=O)=O)cc4)c3C[C@H]2CN1C(=O)c1ccccc1,15.9%
CCOC(=O)Cn1c(=O)oc2cc(S(=O)(=O)NCCc3ccc(C)cc3)ccc21,3.6%
O=C(COc1cccc2cccnc12)N1CCc2ccccc2C1,?
c1ccc(COc2ccc(OCCCn3cncn3)cc2)cc1,4.5%
Cc1ccccc1-n1c(SCC(=O)c2cc(C)n(C)c2C)nnc1-c1ccncc1,-19.2%
O=C(O)c1cccc(OCc2ccccc2Cl)c1,7.9%
O=C(Nc1ncc(Cc2ccccc2)s1)C1CCCO1 (stereo unspecified),5.7%

(more compounds)
smiles,HSD17B inhib
COC(=O)CSc1nc2nc(C)cc(C)n2n1,7.1%
C/C(CCN1CCc2nc(-c3ccccc3)c(-c3ccccc3)cc2C1)=N\O[C@@H](C)c1cn([C@H](CO)Cc2ccccc2)nn1,2.9%&-0.9%[11.4 µM]
c1ccc2c(c1)nnn2-c1ncnc2sc3c(c12)CCCC3,25.1µM*
O=C(O)c1ccc(C(=O)O)cc1,-0.4%
Cc1cc(C(C)c2ccccc2)c(O)c(CN2CCOCC2)c1C (stereo unspecified),-9.5%
Cc1cc(NC(=O)CSCc2nc(-c3cccc(Cl)c3)oc2C)no1,-7.0%
CN(C)C(CNC(=O)c1cccnc1Sc1ccccc1)c1ccco1 (stereo unspecified),-1.8%
CCC(C)NC(=O)Cn1c(=O)n(CCCCC(=O)NCc2ccco2)c(=O)c2ccccc21 (stereo unspecified),0.8%
CCOCCCn1c(=N)c(C(=O)NCc2ccc3c(c2)OCO3)cc2c(=O)n3ccccc3nc21,?
N#CCCN(Cc1cccnc1)S(=O)(=O)c1ccc(S(=O)(=O)NC2CCCCC2)cc1,2.5%
CC(C)C12CC[C@@]3(CC[C@H]4[C@@](C)(CCC[C@]4(C)C(=O)O)[C@@H]3C1)[C@@H](CN)C2,-3.9%[11.4 µM]
O=C(NCc1cccnc1)c1ccc(CS(=O)(=O)c2ccc(Cl)cc2)o1,-2.5%
CC(C)(C)c1cc(C(=O)NCc2ccccc2)ccn1,0.1%
CCOC(=O)C1CCCN(c2cc(=O)n(Cc3ccc(F)cc3)c(=O)[nH]2)C1 (stereo unspecified),-6.6%
Cc1ccc(-c2noc(CCC(=O)NCCCN3CCN(c4cccc(Cl)c4)CC3)n2)cc1,-2.4%
COC(=O)[C@@H]1C[C@@]2(O)[C@H](O)[C@H](O)[C@H](O)C[C@H]2N1Cc1ccccc1OS(=O)(=O)c1ccc(C)cc1,8.1%
CC(=O)N1CCN(C(=O)c2cccc(S(=O)(=O)Nc3ccc(C)cc3)c2)CC1,2.0%
CCN(CC)CCCN1C(=O)C(O)=C(C(C)=O)C1c1cccc(OC)c1 (stereo unspecified),8.3%
COc1ccc(N2CCN(CCNC(=O)CCNS(=O)(=O)c3cccs3)CC2)cc1,12.0%
Cc1cc(C(F)F)n2nc(C(=O)Nc3cc(C)on3)nc2n1,-2.9%
CCc1ccc(-c2nc(CN3CCCC(C(=O)O)C3)c(C)o2)cc1 (stereo unspecified),5.1%
CCCOc1cccc(NC(=O)c2c(-c3ccccc3)noc2C)c1,1.8%
CC[C@H](C)[C@H](NS(=O)(=O)c1ccc(C)cc1)C(=O)N1CCC(C(=O)N[C@H](C(=O)O)C(C)C)CC1,4.5%
COc1cc2c(cc1OC)-c1cc(Nc3ccc4c(c3)OCCO4)nc(=O)n1CC2,?
COc1ccc(-c2nn(C)c3sc(C(=O)N4CCOCC4)cc23)cc1OC,-12.9%
COc1ccc(Cl)cc1S(=O)(=O)N1CCN=C1C,1.2%
CC(=O)c1cccc(NC(=O)CCNS(=O)(=O)c2cccc3nsnc23)c1,-11.3%
CCOC(=O)N1CCC(n2c(SCC(=O)NCc3ccccc3)nc3ccccc3c2=O)CC1,-1.6%
Cc1oc(-c2ccccc2F)nc1CS(=O)(=O)CC(=O)NCCN(C)C1CCCCC1,1.9%
C=CCn1c(SCC(N)=O)nc(C)cc1=O,4.9%
CCOc1ccccc1Nc1nc(N)nc(CSc2nncn2C)n1,9.4%
CC1CC(C)CN(S(=O)(=O)c2ccc(C(=O)Nc3nnc(-c4cccs4)o3)cc2)C1 (stereo unspecified),-7.3%
Cc1onc(-c2ccncc2)c1C(=O)O,4.7%
c1ccc(OCCCCn2cnc3ccccc32)cc1,-4.0%
CN1CCN(C(=O)C2CCN(S(=O)(=O)c3ccc4c(c3)oc(=O)n4C)CC2)CC1,-0.7%
CC1CCCCC1NC(=O)C1CCN(S(=O)(=O)N2CCCCCC2)CC1 (stereo unspecified),13.8%
c1ccc(CCCNc2ncnc3nc[nH]c23)cc1,31.6µM*
Cc1cccc(OCc2nnc(SCC(=O)NCCc3ccccc3)o2)c1,7.4%
O=C(CCn1c(=O)[nH]c2ccsc2c1=O)N1CCN(c2cccc(Cl)c2)CC1,3.9%
O=C(Nc1ncc(Br)s1)C1CCCN1S(=O)(=O)c1cccc2cccnc12 (stereo unspecified),5.4%

Two entries drawn at random from those above:
smiles,HSD17B inhib
O=C(Nc1ncc(Br)s1)C1CCCN1S(=O)(=O)c1cccc2cccnc12 (stereo unspecified),5.4%
c1ccc(CCCNc2ncnc3nc[nH]c23)cc1,31.6µM*

Next results
smiles,HSD17B inhib
Oc1ccccc1CNCc1ccccc1O,-0.3%[11.4 µM]
O=C(COC(=O)c1ccccn1)NCCCc1ccccc1,9.8%
COc1cccc(-c2csc(N3CCN(C(=O)C4CCCCC4)CC3)n2)c1,1.5%
CCOP(=O)(CC(C(C)=O)C(O)c1ccccc1)OCC (stereo unspecified),0.9%[11.4 µM]
CCOCCCNC(=O)C(c1ccc(C)cc1)N1CCOCC1 (stereo unspecified),10.4%
COc1ccc(C)cc1S(=O)(=O)N1CCN(S(=O)(=O)c2cc(C)ccc2OC)CC1,-9.6%
CCC1CCCCN1C(=O)CSc1nnc(-c2ccc3c(c2)OCCO3)o1 (stereo unspecified),-11.3%
CO[C@@H]1/C=C\CC(=O)N[C@@H](C)C(=O)OC[C@H](NS(=O)(=O)c2ccc(C)cc2)[C@H](C)/C=C\CC(=O)OC[C@H]1C,-0.5%[11.4 µM]
Cc1nn(C(C)C(=O)N2CCCCC2)c(=O)c2c1sc1ccccc12 (stereo unspecified),-5.1%
CCOC(=O)c1c(N)sc(C(=O)N2CCCC2)c1C,13.3%
O=C1NCCCC1C(=O)N1CCN(C(=O)c2ccco2)CC1 (stereo unspecified),5.6%
Cc1cc(NC(=O)COc2cccc(Oc3ccccc3)c2)no1,-9.8%
CCN(CC)CCCn1c(-c2ccccc2)nc2c(N(CCOC)CCOC)nc(C)nc21,31.6µM*
O=C(CSc1nc2ccccc2c(=O)n1Cc1ccco1)N1CCCCCC1,8.2%
CCOC(=O)N1CCN(c2c(NCc3ccccc3OC)c(=O)c2=O)CC1,-2.2%
Cc1cc(Br)ccc1NC(=O)CNC(=O)CN1C(=O)NC2(CCCCCC2)C1=O,13.0%
CN(CCNC(=O)C1CC(=O)N(c2ccc(F)c(Cl)c2)C1)Cc1ccccc1 (stereo unspecified),-2.4%
CCCn1c(N)c(C(=O)COC(=O)c2c(C)noc2C)c(=O)n(C)c1=O,9.5%
COC(=O)C1=C(C)OC(N)=C(C#N)C1c1ccccc1 (stereo unspecified),47.8%[activator]
c1ccc(Oc2cc(-n3cccn3)ncn2)cc1,4.8%

4 entries already listed, ordered by number of heavy atoms, low to high:
smiles,HSD17B inhib
c1ccc(Oc2cc(-n3cccn3)ncn2)cc1,4.8%
O=C1NCCCC1C(=O)N1CCN(C(=O)c2ccco2)CC1 (stereo unspecified),5.6%
CCCn1c(N)c(C(=O)COC(=O)c2c(C)noc2C)c(=O)n(C)c1=O,9.5%
CN(CCNC(=O)C1CC(=O)N(c2ccc(F)c(Cl)c2)C1)Cc1ccccc1 (stereo unspecified),-2.4%
